Assay outcomes (PubChem BioAssay)
TRPV1 PAM: HTS Assay for Compounds that Act as Potentiators of the Vanilloid Receptor 1; Transient receptor potential cation channel subfamily V member 1 (Homo sapiens), Q8NER1; TRPV1-expressing cells, Fluo-8 calcium influx, capsaicin EC20 potentiation; host cell line not named in the record; control for the full effect not named in the record; potentiation, % at 8.33 µM; hit rate 0.02% among 320,000; AID 540277, 2011; active means potentiation above 80%; inconclusive means 30% to 80%; inactive means below 30%; further: 0% is about no effect
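Fluo-8 calcium influx in TRPV1-expressing cells, kinetic read (ex 480/em 520 nm). Compound added and read 3 min for agonist activity, followed by capsaicin at EC20 final and 2 min further read for enhancement.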
TRPML1 agonist: qHTS for Agonists of the Human Mucolipin Transient Receptor Potential 1 (TRPML1); TRPML1-expressing cells, Ca2+ dye fluorescence, FDSS; host cell line not named in the record; reference of the full effect not given here; hit rate 0.12% among 410,000; Mucolipin-1 (Homo sapiens), Q9GZU1; AID 624414, 2012; activation, % (test concentration not listed); in the data active = activation above about 50%; inconclusive = about 30% to 50%; inactive = below about 30%; further: 0% is about no effect; the text of the record puts the active cut at 80%
Target sequence (Q9GZU1 whole entry, looked up): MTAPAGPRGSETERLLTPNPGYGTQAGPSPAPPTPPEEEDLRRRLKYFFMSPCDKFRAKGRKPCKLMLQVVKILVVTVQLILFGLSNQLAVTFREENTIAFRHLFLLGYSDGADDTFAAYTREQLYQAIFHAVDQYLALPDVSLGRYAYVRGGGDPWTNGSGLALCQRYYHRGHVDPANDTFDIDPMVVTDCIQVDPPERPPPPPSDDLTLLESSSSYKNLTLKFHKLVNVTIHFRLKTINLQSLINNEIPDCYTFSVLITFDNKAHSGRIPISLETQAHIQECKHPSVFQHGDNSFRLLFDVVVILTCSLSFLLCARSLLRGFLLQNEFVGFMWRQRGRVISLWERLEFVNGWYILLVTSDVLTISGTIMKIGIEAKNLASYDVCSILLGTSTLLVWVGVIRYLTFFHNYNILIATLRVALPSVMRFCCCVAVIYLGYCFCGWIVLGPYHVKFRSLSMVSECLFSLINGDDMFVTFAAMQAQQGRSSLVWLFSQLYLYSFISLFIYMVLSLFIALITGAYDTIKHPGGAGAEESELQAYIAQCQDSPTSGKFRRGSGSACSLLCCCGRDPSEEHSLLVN
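Calcium fluorescence on an FDSS kinetic reader gave the read-out. Tet-induced TRPML1-DL cells were plated overnight, dye-loaded (Ca8 with quencher, 45-90 min, room temperature, dark), then read 110 s after compound addition, and again 110 s after 4uM final 54-4 (EC80).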
TRPML1 blocker: qHTS for Inhibitors of the Human Mucolipin Transient Receptor Potential 1 (TRPML1); TRPML1-inducible cells, Ca2+ dye fluorescence, FDSS; active compounds read low; inhibition of EC80 agonist-evoked calcium signal; activity change, negative = inhibition, % (no concentration beside the values); hit rate 0.02% among 390,000; in the data active means activity change below about -50%; inconclusive means about -30% to -50%; inactive means above about -30%;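 further: stimulus is agonist 54-4 at its EC80 concentration; on the % scale 0 is the no-effect control and ±100 the full control effect; compound concentration not given in the record; the text of the record puts the active cut at -80%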
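Calcium fluorescence in TRPML1-DL cells induced overnight with Tet: a 110 s read after compound pin addition, then a 110 s antagonist read after challenge with 54-4 at 4 uM final (EC80).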
PINK1 expr mod: A Quantitative High throughput Screen to Identify Chemical Modulators of PINK1 Expression; PINK1 immunofluorescence, high-content cytometry, 24 h; Potency, µM (titrated, usually from 76.6 µM), for the others: at the highest dose activation (PINK1 increase), usual class: activators; hit rate 0.2% among 410,000; active = well fitted activation curve with a large enough effect; inconclusive = small, poorly fitted or top-dose-only effect; inactive = flat fitted curve, though single readings scatter; cell line not stated here;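 further: potency means the concentration at half of the fitted maximal effect; % of control where 0% means no effect; nearly all actives have a fitted effect of over 65% in size; a mitochondrial uncoupler was the plate control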
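A stable cell line was treated with compounds at 5 concentrations for 24 hours, with CCCP as control. PINK1 levels and mitochondrial localization were measured by immunofluorescence with mitochondrial, cell and nuclear markers after fixation, read by laser-scanning cytometry.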
Menin-MLL FL inh: qHTS Assay for Inhibitors Targeting the Menin-MLL Interaction in MLL Related Leukemias: Competition With Fluorescein Labeled MLL-derived Peptide; Fluorescence polarization, fluorescein-MLL peptide displacement from menin; FP activity change, % at 61.4 µM; 290,000 tested, under 10 active; inconclusive = falling polarisation curve, or a change in total fluorescence; inactive = total fluorescence flat and polarisation flat or rising; no compound was filed as active; the % refers to the polarisation; negative = inhibition;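 further: % of control where 0% means no effect; inhibitors lower the polarisation; unlabelled MLL peptide was the positive control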
Sfp inh: qHTS Assay for Inhibitors of Bacillus subtilis Sfp phosphopantetheinyl transferase (PPTase); 4'-phosphopantetheinyl transferase ffp (Bacillus subtilis), Q9F4F7; Biochemical Sfp PPTase activity, qHTS; hit rate 3.5% among 310,000; AID 1490, 2009; Potency, µM, without a hit: max response, negative = inhibition, hits mostly inhibitors; active means well fitted inhibition curve with a large enough effect; inconclusive means small, poorly fitted or top-dose-only effect, or another doubt; inactive means no such curve, though single readings can be large or run the other way;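 further: the enzyme is Sfp with the accession as filed and its product quenches rhodamine fluorescence; potency means the concentration at half of the fitted maximal effect; 0% = enzyme reaction without inhibitor and -100% = no enzyme wells; top concentration of the series not given in the record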
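Fluorescence-quenching assay: 15 nM Sfp-PPTase preincubated 15 min at room temperature with compound, then 5 uM rhodamine-CoA and 12.5 uM BHQ-2-labelled YbbR peptide added. Fluorescence (ex 525/em 598 nm) read at start and after 30 min; difference gives rate.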
ClpP mod: qHTS Assay for Activators of ClpP | hit rate 1.9% among 340,000 | ATP-dependent Clp protease proteolytic subunit (Bacillus subtilis (strain 168)), P80244 | AID 651965, 2013 | Potency, µM (titrated, usually from 57.5 µM), without a hit: at the top dose activity change, negative = active | purified B. subtilis ClpP, FRET peptide cleavage, 20 min; active = well fitted falling curve with a large enough effect; inconclusive = small, poorly fitted or top-dose-only effect; inactive = no such curve, though single readings can be large or run the other way; further: potency means the concentration at half of the fitted maximal effect; the source files actives as falling curves though it sought activators and does not explain the sign; nearly all actives have a fitted effect of over 65% in size; many hits overshoot -100%
Target sequence (P80244 whole entry, looked up): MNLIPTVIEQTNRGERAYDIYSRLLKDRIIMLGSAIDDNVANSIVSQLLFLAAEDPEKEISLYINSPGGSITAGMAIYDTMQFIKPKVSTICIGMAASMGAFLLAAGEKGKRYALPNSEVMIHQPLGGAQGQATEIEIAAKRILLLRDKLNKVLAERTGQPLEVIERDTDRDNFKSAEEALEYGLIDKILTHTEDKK
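FRET quenching reversal measured ClpP activation: 10 microg/mL B. subtilis ClpP at pH 8 with the FRET-FV decapeptide, read at 430 nm after 320 nm excitation. The 20-min minus 0-min signal was scaled between DMSO/no-enzyme wells and ADEP (5.8 microM final).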
* hit, by the source's call; u = inconclusive; x = no result given; & = joins results of further samples; [ ] = dose if it differs, or a comment.

structure | TRPV1 PAM | TRPML1 agonist | TRPML1 blocker | PINK1 expr mod | Menin-MLL FL inh | Sfp inh | ClpP mod
O=C(NCc1ccccn1)c1nc(-c2cccs2)no1 | 1 | 2.6 | -10 | -0.2% | -1.5 | 6% | -0.7%
COc1cc(OC)c([N+](=O)[O-])cc1/C=N/NC(=O)c1ccncc1 | 4 | 0.6 | 2 | 0.9% | 0.2 | 35µM* | -0.4%
CCCCCc1nnc(NC(=O)C(=O)OCC)s1 | u | -0.5 | 1 | 1.3%[38.3 µM] | -1.1 | 3% | 1.2%
Cc1nc2ccccn2c1C(=O)c1ccccc1 | -6 | -1.4 | -7 | -1.3% | 4.1 | 13% | -3.2%
COc1cccc(C(=O)NC2CC3CCC(C2)N3Cc2ccccc2)c1 (configuration not stated) | -1 | -0.8 | -17 | -1.2% | -3.1 | 12% | -0.7%
COc1cc(CN2CCN(Cc3ccc(C)cc3)C(CCO)C2)ccc1O (configuration not stated) | 1 | 1.3 | -9 | -1.3% | 0.1 | 20% | x
COc1ccc(CNC(=O)c2cc(-c3cccc(Cl)c3)on2)cc1 | x | 0.2 | 4 | 2.4% | x | x | -2.3%
COc1ccccc1N1CCN(S(=O)(=O)c2ccc(Br)s2)CC1 | -8 | 1.0 | -4 | -0.7%[38.3 µM] | 2.9 | -11% | -0.9%
CCOC(=O)c1ccc(NC(=O)CSc2nnc(CNC(=O)c3c(F)cccc3Cl)o2)cc1 | -3 | -0.5 | 7 | -0.9% | 3.6 | 9% | -0.1%
CC(Oc1ccccc1)C(=O)Nc1c(C(=O)Nc2cccc(F)c2)oc2ccccc12 (configuration not stated) | x | 0.1 | 6 | 1.8% | x | x | u
COc1ccc(Cl)cc1NC(=O)CCN1CCN(Cc2ccccc2)CC1 | -9 | 0.1 | 11 | 1.9% | 3.3 | 9% | -0.2%
Cc1cccc(C(C)C)c1NC(=O)CSc1ncnc2[nH]ncc12 | x | 1.1 | -7 | 0.1% | x | x | -1.2%
Cc1ccc(C)c(N2CCN(C(=O)c3c4c(nc5ccccc35)C(=O)N(C3CCCCC3)C4)CC2)c1 | x | 1.1 | -15 | 2.5% | x | x | -0.8%
O=C1CN(S(=O)(=O)c2ccccc2C(F)(F)F)CCN1 | 0 | -0.4 | -3 | 1.9% | 1.8 | 14% | x
CCOCCCNC(=O)C1CCC(CNS(=O)(=O)c2ccc(NC(C)=O)cc2)CC1 (configuration not stated) | x | -0.4 | -13 | -1.3% | x | x | 1.1%

Profiles, looked up by structure. Order of values: TRPV1 PAM	TRPML1 agonist	TRPML1 blocker	PINK1 expr mod	Menin-MLL FL inh	Sfp inh	ClpP mod
COc1cc(CN2CCN(Cc3ccc(C)cc3)C(CCO)C2)ccc1O (configuration not stated) as listed: 1	1.3	-9	-1.3%	0.1	20%	x
COc1cc(OC)c([N+](=O)[O-])cc1/C=N/NC(=O)c1ccncc1 as listed: 4	0.6	2	0.9%	0.2	35µM*	-0.4%

New compounds follow
structure | TRPV1 PAM | TRPML1 agonist | TRPML1 blocker | PINK1 expr mod | Menin-MLL FL inh | Sfp inh | ClpP mod
COc1ccc(N)c2c1OCCC2=O | -3 | 0.4 | -4 | 3.4% | -1.5 | -24% | -0.9%
COc1c(Cl)cc(Cl)cc1C(=O)Nc1ccc(CN2CCOCC2)cc1 | -7 | 0.2 | 13 | 1.4% | 2.4 | -11% | -1.3%
Cc1ccc(-n2cc3ccc([N+](=O)[O-])cc3n2)cc1 | -5 | -1.3 | 5 | 0.4% | 1.2 | 5% | -1.1%
Cc1ccc(S(=O)(=O)N(C)c2ccc(OC(=O)CN3C(=O)NC(C)(c4ccccc4)C3=O)cc2)cc1C (configuration not stated) | x | 0.9 | 1 | 2.7% | x | x | 0.6%
N#CCCn1c(SCC(=O)NCC2CCCO2)nc2ccccc21 (configuration not stated) | 30 | 1.2 | 4 | -1.3% | 4.4 | 10% | 1.2%
O=C(Nc1ccc(C(=O)N2CCC(N3CCOCC3)CC2)cc1)c1ccc(Br)o1 | 4 | 0.1 | 16 | 0.2% | x | x | -0.5%
Cc1cc(C)c(C)c(/C=C(/C#N)C(N)=S)c1C | -5 | 0.1 | 6 | -2.3%[38.3 µM] | 0.5 | -5% | 0.6%
O=C(CNS(=O)(=O)c1ccccc1)Nc1ccccc1Br | -5 | -0.4 | 8 | 0.0% | x | 12% | -1.2%
CC(=O)Nc1ccc(NC(=O)[C@H](C)NC(=O)c2ccco2)cc1 | 10 | 0.4 | -4 | 1.0% | 4.9 | 3% | x
Clc1ccc(-c2noc(CN3CCOCC3)n2)cc1 | -11 | -0.8 | -10 | -0.9% | -1.0 | 8% | 0.6%
Cc1ccc(S(=O)(=O)N2CCC[C@H]2C(=O)OCC(=O)N2CCc3ccccc32)cc1 | x | 2.2 | -12 | 0.9% | x | x | -9.8%
COc1ccccc1N1C(=O)CC(Nc2ccc(N3CCOCC3)cc2)C1=O (configuration not stated) | 1 | -0.6 | 12 | 0.0% | 1.4 | 79µM* | -1.1%
CNS(=O)(=O)c1cc(NC(=O)c2cccc3cccnc23)ccc1C | 3 | 1.9 | 8 | -0.9% | -2.3 | -7% | x
COc1cc2c(cc1[N+](=O)[O-])-c1ccc([N+](=O)[O-])cc1C2=NO | x | -0.4 | -3 | 0.1% | x | x | -1.0%
CCn1c(COc2ccccc2C)nnc1SCC(=O)NC1CCCC1 | -2 | -0.2 | -3 | 3.0% | 4.4 | 8% | -0.6%

(continued)
structure | TRPV1 PAM | TRPML1 agonist | TRPML1 blocker | PINK1 expr mod | Menin-MLL FL inh | Sfp inh | ClpP mod
CCOC(=O)C1=C(C)NC(C)=C(C(=O)OC)[C@H]1c1cccc([N+](=O)[O-])c1 | x | -0.9 | x | 3.1% | u | -2% | -2.1%
CCN(CC)C(=O)CSc1cn(CC(=O)N2CCCCCC2)c2ccccc12 | x | -0.4 | -17 | 0.2% | x | x | -1.5%
Fc1ccc(C(c2nnnn2CCc2ccccc2)N2CCCc3ccccc32)cc1 (configuration not stated) | -5 | 0.2 | 14 | 1.1% | 4.3 | -7% | -0.4%
CC1(C(=O)NCc2cccc3ccccc23)CCN1CCc1ccccc1 (configuration not stated) | x | -0.2 | x | 12% | x | x | -0.2%
CCc1ccc(C(=O)/C=C/Nc2ccc(S(=O)(=O)Nc3cnc4ccccc4n3)cc2)cc1 | -9 | -0.3&-0.9 | -3&9 | u | 2.7 | 10% | -1.4%
O=C(c1cccc(F)c1)N1CCC(N2CCOCC2)CC1 | 0 | -0.6 | -2 | -1.0% | -1.2 | 56µM* | 14µM*
Cc1ccc(-n2c(N)c(C(=O)N3CCOCC3)sc2=S)c(C)c1 | -16 | -0.3 | 29 | 0.4% | 4.5 | 28µM* | 1.0%
CC(C)CN(C(=O)C1COc2ccccc2O1)c1c(N)n(CC(C)C)c(=O)[nH]c1=O (configuration not stated) | 3 | 0.7 | -10 | 1.5% | x | x | -1.0%
COc1ccc(C2N(S(=O)(=O)c3ccc(C)cc3)CCN2S(=O)(=O)c2ccc(C)cc2)cc1 | 0 | 1.2 | -1 | x | 1.2 | 14% | -0.5%
CCOC(=O)c1cccc(N2CC3CNC(=O)C2(C(=O)OC)N3C)c1 (configuration not stated) | x | -0.5 | 9 | -0.2% | x | x | 3.8%
COc1ccc2c(-c3ccccc3)cc(SCC(=O)NC3CCS(=O)(=O)C3)nc2c1 (configuration not stated) | 1 | 0.6 | 14 | -2.4% | 2.9 | -5% | x
O=S1(=O)CCO[C@H]2Cc3ccccc3[C@H]2N1Cc1ccc(F)cc1 | 14 | 0.0&-0.1 | -3 | -0.2% | -0.2 | 17% | 2.6%&1.4%
O=C(NN1CCOCC1)c1sc2cccc(F)c2c1Cl | 0 | -0.1 | -9 | 2.4% | -1.8 | 3% | x
N#Cc1ccccc1NC(=O)Cn1cnc2onc(-c3cccc(F)c3)c2c1=O | x | 0.0 | -24 | 0.6% | x | x | -1.4%
CCN1CCN(c2ccc(S(=O)(=O)N3CCCCC3)cc2NC(=O)c2ccc(C)c(C)c2)CC1 | x | -0.3 | 22 | 0.9% | x | x | -2.2%

(more compounds)
structure | TRPV1 PAM | TRPML1 agonist | TRPML1 blocker | PINK1 expr mod | Menin-MLL FL inh | Sfp inh | ClpP mod
Cc1cc(C)c2c(N)c(C(=O)c3ccccc3)oc2n1 | u | -0.6 | -3 | 3.1%[38.3 µM] | 0.4 | u | -3.0%
Cc1ccc(OCC(=O)NNC(=O)CSc2ncc(C#N)c(N)n2)cc1 | 8 | -0.2 | 1 | 3.5% | 8.1 | 12% | -0.2%
CCc1noc(C)c1C(=O)N1CCN(c2cccc(C)c2C)CC1 | 18 | 0.1 | -3 | -1.1% | x | x | -4.8%
CCC/C(O)=C1\C(=O)CC(c2ccccc2)CC1=NC (configuration not stated) | 0 | -0.5 | -1 | -0.9% | -0.8 | 10% | -1.6%
O=C(NC(=S)Nc1ccccc1[N+](=O)[O-])c1ccco1 | -14 | 0.0 | -5 | 0.6% | -0.5 | 56µM* | x
O=C(Cc1nnc(NC(=O)c2ccccc2)s1)N/N=C/c1ccco1 | -3 | -0.5 | -3 | 3.8% | 11 | 4% | -2.7%
Cc1cc(NC(=O)CCc2ccc(-c3ccccc3)o2)no1 | 2 | 2.1 | -19 | 1.7% | 2.7 | -28% | 3.1%
CC1=C(C(=O)NC2CCC(C)CC2)C2(CCC(C)CC2)OC1=O (configuration not stated) | 4 | -0.4 | 12 | -0.7% | 2.0 | 21% | 0.6%
CCCCN(C(=O)CSc1nnc(Nc2ccc(C)c(C)c2)s1)c1c(N)n(Cc2ccccc2)c(=O)[nH]c1=O | 8 | 0.4 | 6 | -0.7% | -1.1 | 5% | u
O=C(NCCCN1CCCC1)c1cccc(N2CCCC2=O)c1 | -3 | 0.3 | 43 | -0.6% | -6.6 | u | 0.2%
CCN(C(=O)c1cnc(NC(C)C)cc1C(F)(F)F)c1ccc(Cl)cc1Cl | -6 | 0.7 | 5 | 2.0% | 0.9 | 12% | x
